H5N1 CPE: MDCK cell protection from H5N1 avian flu; inhibition, % at 50 µM; 96,000 compounds, 0.07% hits; cytopathic effect, luminescence, 72 h; active compounds read high; no value below 0 was filed and about half of the inactive calls have no number; reference of the scale not given here; in the data active means inhibition above about 25%
Numbers without * were called inactive; i = inactive. This is a subset, so the mix of outcomes need not match the whole.

SMILES	H5N1 CPE
Cc1ccc(-c2nnn(CC(=O)N(c3ccc(F)cc3)C(C(=O)NC3CCCC3)c3ccco3)n2)o1 (configuration not stated)	1.6
Cc1ccc2c(CC(=O)NCc3ccc4c(c3)OCO4)coc2c1	1.7
CCCOc1ccccc1C1SCC(=O)Nc2c1c(=O)[nH]n2C(C)CCC (configuration not stated)	i
COc1ccc(NC(=O)CN2c3cccc4cccc(c34)S2(=O)=O)c(OC)c1	0.2
Cc1ccc(/C=C(/C#N)C(=O)NC(=O)Oc2ccccc2)cc1	i
C=CCOc1ccc(/C(O)=C2/C(=O)C(=O)N(CCCN3CCOCC3)C2c2ccc(OC)cc2)cc1 (configuration not stated)	i
Fc1ccccc1CSc1nnc(-c2cccs2)o1	0.2
CNc1c([N+](=O)[O-])ncn1C	i
Cc1ccc(-c2nn3c(C)nnc3c3ccccc23)cc1S(=O)(=O)NCc1ccccc1	7.8
CC(C)Nc1c(N)c(=O)oc2ccccc12	i
CS(=O)(=O)N1CCC(C(=O)NCc2ccncc2)CC1	1.1
CC1CCN(CCCNC(=O)C2CC(=O)N(C3CCCCCC3)C2)CC1 (configuration not stated)	0.6
CCCCc1c(C)c(C#N)c2nc3ccccc3n2c1Nc1c(C)n(C)n(-c2ccccc2)c1=O	1.2
COc1cc(OC)c(N2CC34C=CC(O3)C(C(=O)O)C4C2=O)cc1Cl (configuration not stated)	0.0
O=[N+]([O-])c1ccc(N2N=C(c3ccco3)CC2c2ccccc2)cc1 (configuration not stated)	0.2
CCC(C)c1ccc(OCCN2CCCC2)cc1 (configuration not stated)	i
Cc1ccc(C(=O)NC2CCCc3ccccc32)o1 (configuration not stated)	1.1
CCn1c(SCC(=O)Nc2cc(C)on2)nnc1-c1cccs1	i
CCOc1ccc(OCC)c(NC(=O)CCn2cccc2)c1	i
COCCN1C(=O)C(=O)/C(=C(/O)c2cccc(OC)c2)C1c1ccncc1 (configuration not stated)	i

In the list so far, these have an aryl thioether with sulfur outside any ring:
SMILES	H5N1 CPE
Fc1ccccc1CSc1nnc(-c2cccs2)o1	0.2
CCn1c(SCC(=O)Nc2cc(C)on2)nnc1-c1cccs1	i

(next part)
SMILES	H5N1 CPE
CSC1=NCCN1C(=O)c1cccs1	3.1
Cc1ccc(Nc2nc(N3CCOCC3)c3ccccc3n2)cc1	i
O=C(CCS(=O)(=O)c1cccc2nonc12)N1CCOCC1	0.5
O=S(=O)(Nc1nc2ccc(S(=O)(=O)N3CCCCC3)cc2s1)c1ccccc1	0.3
CC1CCN(C(=S)c2ccc(O)cc2)CC1	i
Cc1ccc(NC(=O)c2ccccc2CCc2ccccc2)c(C)c1	i
CCOc1ccc(NC(=O)CSc2nnc(-c3ccccc3Cl)n2Cc2ccco2)cc1	i
Cc1ccc(NS(=O)(=O)c2ccc(NC(=O)c3ccc(Br)o3)cc2)c(C)c1	i
COc1ccc(Cn2c(=O)[nH]c3cc(C(=O)N4CCN(Cc5ccccc5)CC4)ccc3c2=O)cc1	i
CSc1nc(Sc2cccc(Cl)c2)c2ccccc2n1	i
Cc1ccc(N(C)C(=O)N2CCN(S(=O)(=O)c3ccc(C)c(C)c3)CC2)cc1	1.6
CCc1cc2c(=O)nc3n(c2s1)Cc1ccccc1/C3=C(/O)c1ccc(F)cc1	0.2
CC(C)COc1ccc(C(=O)N/C(=C\c2cccc([N+](=O)[O-])c2)C(=O)OC(C)C)cc1	i
COc1ccc(CCNC(=O)c2c(O)c3cccc4c3n(c2=O)CC4)cc1	i
O=C(COc1ccccc1)NCC(=O)NC1=NCCS1	i
OC(CN1C2=NCCCN2c2ccccc21)c1ccc2c(c1)OCO2 (configuration not stated)	1.2
CCOC(=O)c1[nH]c(C)c(C(=O)OCC(=O)NC(=O)NC(C)(C)C)c1C	i
CC(C)(C)c1ccc(S(=O)(=O)NCC(=O)N2CCN(C(=O)c3ccco3)CC2)cc1	0.3
O=C(CN1CCN(c2ccc(Cl)cc2)CC1)Nc1ccc(F)c(F)c1	1.0
Cc1cc(C)nc(SCc2nc3ncccn3c2Br)n1	2.2
COc1ccc(C)cc1S(=O)(=O)N(C)CC(=O)NC1CC1	0.7
Cc1ccc(NC(=O)CCC(=O)NNC(=O)c2cccs2)c(C)c1	0.2
CCC1(C)Cc2c(sc3nn[nH]c(=O)c23)CO1 (configuration not stated)	0.5
CCCOc1ccccc1-c1nc2c([nH]1)c(=O)[nH]c(=O)n2C	1.7
CCCCN1C(=O)C(NC(C)=O)c2ccccc21 (configuration not stated)	0.1
Cc1ccc(S(=O)(=O)c2nc(NC3CCS(=O)(=O)C3)sc2Cl)cc1 (configuration not stated)	0.1
CCOP(=O)(O)c1ccccc1OCCOc1ccccc1P(=O)(O)OCC	1.0
CC(C)N(C(=O)CSc1nc2ccccc2n1-c1ccccc1)C(C)C	i
CC(C)CCn1c(SCCN2CCOCC2)nc2c1c(=O)[nH]c(=O)n2C	1.7
CCN1CCN(C(=S)c2ccc(SC)cc2)CC1	2.2
Cc1ccc(NC(=O)c2cccs2)cc1NC(=O)c1ccco1	i
CCCC1=C(C(=O)OCC)C(c2ccccc2OC)NC(=O)N1 (configuration not stated)	i
O=C(CN1CCN(c2ccccc2F)CC1)c1ccc2c(c1)OCO2	i
COc1cccc(OC)c1C(=O)Nc1c(C)n(C)n(-c2ccccc2)c1=O	0.9
O=C(NCc1ccc2c(c1)OCO2)C1CCCN(S(=O)(=O)c2cccc3nonc23)C1 (configuration not stated)	i
CCOC(=O)c1[nH]c2ccc(F)cc2c1N=C(C)N(CC)CC	i
CC(C)Sc1oc(-c2ccco2)nc1S(=O)(=O)c1ccccc1	1.7
COc1ccc(S(=O)(=O)N(Cc2nc3ccccc3c(=O)[nH]2)C2CCCC2)cc1	0.3
COC(=O)C1=C(C)NC(=O)CC1c1cc(Br)ccc1F (configuration not stated)	1.1
O=C(Nc1cnc2sc3c(n2c1=O)CCCC3)c1ccc(F)cc1	1.0
O=C(CSc1nnc(CNc2ccccc2)o1)N1CCN(C(=O)c2ccco2)CC1	2.9
CC(=O)C1=NN(c2ccccc2)C(c2cccs2)N1c1ccc(N(C)C)cc1 (configuration not stated)	i
Cc1cc(C)n(-c2nnc(C)n2/N=C/c2cc(Br)ccc2OCc2ccccc2)n1	i
CCCOc1ccc(C(=O)NNC(=S)NC(=O)CC)cc1	i
CCOC(=O)c1c2n(c3c(NCc4ccccc4)ncnc13)CCCC2	1.7
CCOC(=O)c1c(C)[nH]c(C)c1C(=O)COC(=O)c1ccc(Cl)c(S(=O)(=O)NCc2ccccc2)c1	0.6
CC(C)Sc1oc(-c2ccco2)nc1S(=O)(=O)c1ccc(F)cc1	10
O=C(O)Cc1ccccc1C(=O)O	0.4
COc1ccc(Cl)cc1S(=O)(=O)N1CCN(C(=O)COc2ccccc2)CC1	0.8
CCC(Sc1ncccc1C(=O)O)C(=O)N1CCOCC1 (configuration not stated)	0.0

(listing goes on)
SMILES	H5N1 CPE
COc1ccc(NC(=O)CCCn2c(=S)[nH]c3ccccc3c2=O)cc1	0.6
COc1nnc(-c2ccc(C(=O)N3C[C@@H]4C[C@H](C3)c3cccc(=O)n3C4)cc2)c2ccccc12	0.7
CCOC(=O)C1CCCN(c2ccc(NC(=O)c3snc4c(=O)[nH]cnc34)cc2)C1 (configuration not stated)	i
CCCCSc1nnc([C@H](CC(C)C)NC(=O)OC(C)(C)C)o1	0.8
CCCn1c(SCC(=O)Nc2ccccc2CC)nnc1C(C)C	i
N#CCCN1CCN(S(=O)(=O)c2ccc(S(=O)(=O)NC3CC3)cc2)CC1	1.0
CCOC(=O)c1cccc(Nc2nc(C)cc(C)n2)c1	1.4
CC1CN(C(=O)C(c2ccccc2)c2ccccc2)CC(C)O1 (configuration not stated)	0.2
COc1cccc(OC)c1C(=O)N1CCN=C1SCc1cccnc1	0.6
COC(=O)c1ccc(NC(=O)C2CCCN(S(=O)(=O)c3cnc[nH]3)C2)cc1 (configuration not stated)	0.3
N#CC1=C(N)C(C#N)(C#N)C(c2cccnc2)C2CC(c3ccccc3)CC=C12 (configuration not stated)	7.3
CCOC(=O)C1=C(C)Nc2ncnn2C1c1ccc(N(C)C)cc1 (configuration not stated)	0.4
CN1CCN(C(=O)c2c(O)c3cccc4c3n(c2=O)CCC4)CC1	0.5
COc1ccccc1NC(=O)COC(=O)[C@@H]1CCCN1C(=O)c1cccs1	i
CCCCc1c(CCC)c(=N)c2ccccc2n1C	i
C/C(=N\NS(=O)(=O)c1ccc(C)cc1)c1cccs1	1.4
Cc1ccc(CN2C(=O)CCC2C(=O)NCCCN2CCCC(C)C2)cc1 (configuration not stated)	0.7
O=C(Oc1ccc(Cl)cc1)c1ccc(COC(=O)c2cnccn2)cc1	i
CCn1c(CC(=O)Nc2ccc(C)c(Cl)c2)nnc1SCCOc1ccc(OC)cc1	0.1
COc1ccc(Cc2nn3c(-c4cc(OC)c(OC)c(OC)c4)nnc3s2)cc1	1.9
NCCCCCc1nnc(SCc2ccc(Cl)cc2Cl)o1	i
COC(=O)c1[nH]c2cc(OC)c(OC)cc2c1NC(=O)c1cccc(OC)c1	i
COc1ccc(C(=O)Cn2nnc(-c3ccccc3NC(=O)c3ccco3)n2)cc1	i
CC(=O)NCc1ccc(C(=O)CSc2nnc(-c3ccncc3)n2Cc2ccccc2)o1	0.5
CC(=O)NS(=O)(=O)c1ccc(NC(=O)c2cc(-c3ccc(C)c(C)c3)nc3ccccc23)cc1	0.4
Cc1cc(NC(=O)CSc2nc(-c3cccs3)cc(C(F)(F)F)n2)no1	i
COc1ccc(CC(=O)Nc2ccc3c(c2)OCO3)cc1S(=O)(=O)N1CCOCC1	0.8
N#CCCN1CCN(Cc2cc(-c3ccccc3)ccc2O)CC1	i
CCOC(=O)c1c(C)c(C(=O)N2CCc3ccccc3C2)c(C)n1CC	i
O=C(CS(=O)(=O)c1ccccc1)N1CCCCCC1	1.1
CC(C)(C)OC(=O)NC(CCCCNC=O)C(=O)O (configuration not stated)	0.6
CC1CC(C)CN(c2oc(-c3ccccc3Cl)nc2C#N)C1 (configuration not stated)	1.4
Cc1ccccc1OCC(=O)O/N=C(\N)Cc1cccs1	i
COc1cccc2c1OC[C@@H](CO)[C@H]2N(C)C(=O)Nc1ccccc1	0.4
Cc1cccc(OCC(=O)N/N=C/c2cn[nH]c2-c2ccc(Cl)c(Cl)c2)c1	i
CCOc1c2ccc(C(=O)NCCCCc3ccccc3)cc2nn1CC	0.1
COc1ccc(OC)c(C2SCCN2S(C)(=O)=O)c1 (configuration not stated)	1.0
CCCOc1cccc(C(=O)Nc2nnn(CCC)n2)c1	2.7
CCn1c(SCC(=O)N2CCCCC2C)nnc1-c1ccc(S(=O)(=O)N2CCN(C)CC2)cc1 (configuration not stated)	i
COc1cc(C2=Nc3c(c(C)nn3-c3ccccc3)P(=O)(N3CCOCC3)O2)cc(OC)c1OC (configuration not stated)	i
CC(=O)NC(CCS(C)(=O)=O)C(=O)Nc1cccc(C)c1 (configuration not stated)	i
Cc1ccc(N2C(=O)[C@@H]3Cc4ccccc4CN3C2=O)cc1	i
COc1ccc(-c2nc(N)n(C(C)=O)n2)cc1	i
C/C(=N/OC(=O)N(C)C)c1ncc(C(F)(F)F)cc1N1CCOCC1	0.2
O=C(Cn1nnc(-c2ccc(Cl)cc2)n1)NCC1CCCCC1	i
CCOC(=O)C1CCCN(Cc2c(F)cccc2Cl)C1 (configuration not stated)	i
Cc1ccc(-c2nnc(-c3ccccc3)c(N3CCOCC3)n2)cc1	0.6
COc1ccc(CO/N=C/c2c(C)[nH]c(=O)[nH]c2=O)cc1	i
COc1cccc(CN(Cc2ccco2)C(c2ccc(F)cc2)c2nnnn2C(C)(C)C)c1 (configuration not stated)	3.5
O=c1c2ccccc2nc2n1C(CSCc1cccc(C(F)(F)F)c1)CS2 (configuration not stated)	4.9

The results go on:
SMILES	H5N1 CPE
CCOC(=O)C(NCCCO)c1ccccc1 (configuration not stated)	i
COc1ccccc1N1CCN(C(=O)COc2ccc(Cl)cc2Br)CC1	0.4
CN(C)CCCNC(=O)CCC1CCCCC1	i
O=S(=O)(Nc1ccc(Cc2ccncc2)cc1)c1ccc(Cl)c(Cl)c1	i
CCOC(=O)c1sc2ncnc(N3CCN(c4ccc(OC)cc4)CC3)c2c1C	i
Cc1cc(C(F)(F)F)c(C#N)c(SCC(=O)NC2CC2)n1	2.1
COC(=O)c1ccc(CC(=O)c2c(C)cc(O)cc2O)o1	i
Cc1ccc2c(c1)[nH]c1c(=O)n(CCC3=CCCCC3)cnc12	i
Cc1cc(N2CCN(C)CC2)nc(N2CCOCC2)n1	0.9
N#Cc1nc(-c2ccccc2Cl)oc1NCc1ccco1	1.3
O=C1CC(N2CCN(CCc3ccccn3)CC2)C(=O)N1c1ccc(Cl)cc1 (configuration not stated)	1.2
CCC(=O)Nc1cc(-c2nn(C)c(=O)c3ccccc23)ccc1OC	0.4
Nc1nnc(Cc2c[nH]c3ccccc23)s1	0.3

Structures from the list above that have an NH in an aromatic ring (17):
SMILES	H5N1 CPE
CCCOc1ccccc1C1SCC(=O)Nc2c1c(=O)[nH]n2C(C)CCC (configuration not stated)	i
COc1ccc(Cn2c(=O)[nH]c3cc(C(=O)N4CCN(Cc5ccccc5)CC4)ccc3c2=O)cc1	i
CCOC(=O)c1[nH]c(C)c(C(=O)OCC(=O)NC(=O)NC(C)(C)C)c1C	i
CCC1(C)Cc2c(sc3nn[nH]c(=O)c23)CO1 (configuration not stated)	0.5
CCCOc1ccccc1-c1nc2c([nH]1)c(=O)[nH]c(=O)n2C	1.7
CC(C)CCn1c(SCCN2CCOCC2)nc2c1c(=O)[nH]c(=O)n2C	1.7
CCOC(=O)c1[nH]c2ccc(F)cc2c1N=C(C)N(CC)CC	i
COc1ccc(S(=O)(=O)N(Cc2nc3ccccc3c(=O)[nH]2)C2CCCC2)cc1	0.3
CCOC(=O)c1c(C)[nH]c(C)c1C(=O)COC(=O)c1ccc(Cl)c(S(=O)(=O)NCc2ccccc2)c1	0.6
COc1ccc(NC(=O)CCCn2c(=S)[nH]c3ccccc3c2=O)cc1	0.6
CCOC(=O)C1CCCN(c2ccc(NC(=O)c3snc4c(=O)[nH]cnc34)cc2)C1 (configuration not stated)	i
COC(=O)c1ccc(NC(=O)C2CCCN(S(=O)(=O)c3cnc[nH]3)C2)cc1 (configuration not stated)	0.3
COC(=O)c1[nH]c2cc(OC)c(OC)cc2c1NC(=O)c1cccc(OC)c1	i
Cc1cccc(OCC(=O)N/N=C/c2cn[nH]c2-c2ccc(Cl)c(Cl)c2)c1	i
COc1ccc(CO/N=C/c2c(C)[nH]c(=O)[nH]c2=O)cc1	i
Cc1ccc2c(c1)[nH]c1c(=O)n(CCC3=CCCCC3)cnc12	i
Nc1nnc(Cc2c[nH]c3ccccc23)s1	0.3
